Source: PubChem (Broad Institute)
Vaccinia stage = blocks a specific stage of Vaccinia orthopoxvirus infection, primary screen, cell-based, single point. Vaccinia-infected cells, mCherry/Venus stage reporter fluorescence; stronger effect = lower value; some inactives read as strong as hits. activity change (mCherry), % (no concentration beside the values). hit rate 0.01% among 89,000;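 active = mCherry past -33% and 40 or more points under the early reporter, replicates agreeing; inconclusive = past -33% without that gap or agreement; tested in A549 cells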;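 note: scaled between vehicle wells and reference inhibitor wells; 23 nL library stock went into each well; one replicate is shown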
Vaccinia stage Venus = recorded beside Vaccinia stage, whose call it bears; activity change (Venus), %; measured here: Venus reporter, other viral stage;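 negative = less Venus signal; first of two replicates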
* marks the source's active call; other numbers are inactive results; ? = inconclusive; · = not tested or not shown; & = joins results of further samples.

SMILES,Vaccinia stage,Vaccinia stage Venus
C[C@@H]1CCCCO[C@@H](CN(C)S(=O)(=O)c2ccc(F)cc2)[C@@H](C)CN([C@H](C)CO)C(=O)c2cc(NC(=O)Nc3ccc4c(c3)OCO4)ccc2O1,8.5,7.5
C[C@H](CO)N1C[C@H](C)[C@H](CN(C)C(=O)Nc2ccc3c(c2)OCO3)Oc2ccc(NC(=O)Nc3ccc(C(F)(F)F)cc3)cc2C1=O,-12.5,-8.9
CN1c2ccc(-c3ccc(F)cc3)cc2[C@@H]2[C@@H](CCN2C(=O)Cc2cccnc2)[C@H]1CO,12.6,9.3
CN(C)C(=O)c1cccc(-c2ccc([C@@H]3[C@@H](C#N)N(C(=O)C4CCC4)[C@H]3CO)cc2)c1,4.7,8.2
O=C(NCC[C@@H]1CC[C@@H](NS(=O)(=O)c2ccccc2)[C@@H](CO)O1)c1ccccc1F,1.8,0.4
C[C@H]1CN([C@@H](C)CO)C(=O)c2cc(C#CC3(O)CCCC3)cnc2O[C@@H]1CN(C)C,18.1,15.6
C[C@H]1CN([C@@H](C)CO)C(=O)Cc2cc(NC(=O)Nc3ccc4c(c3)OCO4)ccc2O[C@@H]1CN(C)C(=O)Nc1ccc2c(c1)OCO2,16.1,5.5
CNC[C@@H]1Oc2ccc(NC(=O)Nc3ccc(OC)cc3)cc2CC(=O)N([C@@H](C)CO)C[C@@H]1C,2.1,-0.2
COCC(=O)N(C)C[C@@H]1[C@H](c2ccc(-c3cccnc3)cc2)[C@@H](CO)N1C(C)=O,13.1,-2.5
N#C[C@H]1[C@@H](c2ccc(-c3ccccc3)cc2)[C@@H](CO)N1C(=O)Cc1ccccc1,-10.6,-5.2
COc1ccc(S(=O)(=O)Nc2ccc3c(c2)C(=O)N(C)C[C@@H](OC)[C@H](C)CN(Cc2cc(F)ccc2F)[C@H](C)CO3)cc1,?,·
C[C@H](NC(=O)C[C@H]1C[C@H]2c3cc(NS(=O)(=O)c4ccc(F)cc4)ccc3O[C@H]2[C@@H](CO)O1)c1ccccc1,-12.1,-5.3
C[C@H]1CN([C@@H](C)CO)C(=O)c2cccc(NC(=O)C3CC3)c2O[C@@H]1CN(C)Cc1ccccc1,24.3,9.0
CCC(=O)N(C)C[C@H]1Oc2ncc(-c3ccccc3C)cc2C(=O)N([C@@H](C)CO)C[C@@H]1C,8.6,-7.3
C[C@@H]1CN([C@H](C)CO)C(=O)Cc2cc(NS(=O)(=O)c3ccccc3)ccc2O[C@H]1CN(C)C(=O)Nc1ccc(C(F)(F)F)cc1,10.1,2.6

Brought forward from above: four entries; new compounds follow.
SMILES,Vaccinia stage,Vaccinia stage Venus
C[C@H](NC(=O)C[C@H]1C[C@H]2c3cc(NS(=O)(=O)c4ccc(F)cc4)ccc3O[C@H]2[C@@H](CO)O1)c1ccccc1,-12.1,-5.3
C[C@H]1CN([C@@H](C)CO)C(=O)c2cccc(NC(=O)C3CC3)c2O[C@@H]1CN(C)Cc1ccccc1,24.3,9.0
CCC(=O)N(C)C[C@H]1Oc2ncc(-c3ccccc3C)cc2C(=O)N([C@@H](C)CO)C[C@@H]1C,8.6,-7.3
C[C@@H]1CN([C@H](C)CO)C(=O)Cc2cc(NS(=O)(=O)c3ccccc3)ccc2O[C@H]1CN(C)C(=O)Nc1ccc(C(F)(F)F)cc1,10.1,2.6
COc1ccc(CN(C)C[C@H]2Oc3ccc(NS(=O)(=O)c4ccc(F)cc4)cc3CC(=O)N([C@@H](C)CO)C[C@H]2C)cc1,?,·
COCC#Cc1cnc2c(c1)C(=O)N([C@@H](C)CO)C[C@H](C)[C@H](CN(C)C(=O)C1CCOCC1)O2,9.1,10.4
COCC(=O)Nc1ccc2c(c1)OC[C@H](C)N(Cc1ccccc1)C[C@H](C)[C@H](OC)CN(C)C2=O,-10.3,-9.7
Cc1noc(C)c1NC(=O)NCC[C@H]1CC[C@@H](NC(=O)Nc2cccc(Cl)c2)[C@H](CO)O1,-12.4,-2.0
Cc1ccc(-c2ccc([C@H]3[C@@H](CO)N4C(=O)CN(C(=O)Nc5ccc(F)cc5)C[C@H]34)cc2)cc1,-23.4,-20.8
CCO[C@H]1OC(C(=O)NCc2nc3ccccc3[nH]2)=C[C@@H](c2cn(C(C)=O)c3ccccc23)[C@@H]1CCCO,-25.4,-15.6
OC[C@@H]1CC[C@@H]2O[C@H](CCc3ccc(C#Cc4ccccc4)cc3)[C@@H](n3cc(-c4ccccc4)nn3)C[C@@H]2O1,27.1,20.2
C[C@H]1CN([C@@H](C)CO)C(=O)c2cc(NC(=O)C3CC3)ccc2O[C@@H]1CN(C)C(=O)Nc1cccc2ccccc12,8.5,22.6
COCC(=O)N1CCC2(CC1)CN(C(=O)NC1CCCC1)[C@@H](CO)c1c2c2ccc(OC)cc2n1C,17.3,19.7
COc1ccc2c3c([nH]c2c1)[C@@H](CO)N(C(C)=O)CC31CCN(Cc2cc(-c3ccccc3)on2)CC1,?,·
C[C@@H]1CN([C@H](C)CO)C(=O)c2c(c3ccccc3n2C)-c2ccccc2CO[C@H]1CN(C)C(=O)Nc1cccc(C(F)(F)F)c1,?,·
CCCNC(=O)Nc1ccc2c(c1)C(=O)N(C)C[C@@H](OC)[C@@H](C)CN(C)[C@H](C)CO2,20.3,21.9
Cc1ccc(S(=O)(=O)N[C@H]2CC[C@H](CC(=O)NC3CCCCC3)O[C@H]2CO)cc1,3.0,3.0
CNC(=O)C[C@H]1CC[C@H]2[C@H](COc3ccc(NC(=O)c4ccccc4Cl)cc3C(=O)N2C)O1,0.7,0.6
C[C@H]1CN([C@@H](C)CO)C(=O)c2cccc(NS(C)(=O)=O)c2O[C@H]1CN(C)C,23.2,10.6
N#C[C@@H]1[C@@H](c2ccccc2C2=CCCCC2)[C@H](CO)N1S(=O)(=O)c1cccc(F)c1,?,·
CC(C)C#Cc1cnc2c(c1)C(=O)N([C@H](C)CO)C[C@H](C)[C@H](CN(C)Cc1ccccc1F)O2,-8.6,-4.8
C[C@H](CO)N1C[C@H](C)[C@@H](CN(C)S(C)(=O)=O)Oc2cc(C3=CCCCC3)ccc2S1(=O)=O,-26.5,-24.1
C[C@H]1CN([C@@H](C)CO)C(=O)Cc2cc(NS(=O)(=O)c3ccc(Cl)cc3)ccc2O[C@H]1CN(C)Cc1ccc(Oc2ccccc2)cc1,-15.5,-16.0
CC(C)C#Cc1ccc2c(c1)O[C@H](CN(C)C(=O)CN(C)C)[C@H](C)CN([C@@H](C)CO)S2(=O)=O,-2.2,-1.4
Cc1ccccc1S(=O)(=O)N1C[C@@H](O)COC[C@H]2O[C@H](CC(=O)N3CCC(Cc4ccccc4)CC3)CC[C@@H]21,-33.5,-26.5
C[C@@H]1CN([C@H](C)CO)C(=O)c2cc(-c3ccc(C#N)cc3)cnc2O[C@H]1CN(C)C(=O)Nc1ccc(F)cc1,-1.0,0.9
CN1c2ccc(-c3ccccc3F)cc2[C@@H]2[C@@H](CCN2C(=O)NC2CCCCC2)[C@H]1CO,-1.0,12.7
O=C(c1ccc2c(c1)OCO2)N1CC(=O)N2[C@H](CO)[C@@H](c3ccc(C#Cc4ccccc4)cc3)[C@H]2C1,-23.9,-25.5
O=C(C[C@@H]1C[C@@H]2c3cc(NC(=O)C4CCC4)ccc3O[C@@H]2[C@@H](CO)O1)NC1CCCC1,1.0,6.3
CCNC(=O)C[C@@H]1CC[C@@H]2[C@H](COc3ccc(NC(=O)Nc4ccccc4F)cc3C(=O)N2C)O1,9.2,9.2
C[C@H](CO)N1C[C@H](C)[C@@H](CN(C)C(=O)Nc2ccccc2F)Oc2ncc(-c3ccccc3)cc2C1=O,18.8,1.0
C[C@@H]1CCCCO[C@H](CN(C)S(=O)(=O)c2ccccc2)[C@@H](C)CN([C@H](C)CO)C(=O)c2cc(NC(=O)Nc3ccccc3)ccc2O1,9.7,1.2
COc1ccc([C@H]2C=C(C(=O)N3CCCCC3)O[C@@H](OCc3ccc(CO)cc3)C2)cc1,6.2,3.4
C[C@@H]1CN([C@@H](C)CO)S(=O)(=O)c2ccc(Br)cc2O[C@@H]1CN(C)C(=O)c1ccc(F)cc1,-2.5,-4.2
CN1CCN(C(=O)C2=C[C@H](C(C)(C)C)C[C@H](OCc3ccc(CO)cc3)O2)CC1,24.0,9.2
Cc1ccccc1S(=O)(=O)NCC[C@H]1CC[C@H](NS(=O)(=O)c2ccccc2C)[C@H](CO)O1,-15.3,-10.5
COc1ccc(NC(=O)Nc2ccc3c(c2)C(=O)N([C@@H](C)CO)C[C@H](C)[C@H](CN(C)C(=O)Nc2ccccc2)OCCCC[C@@H](C)O3)cc1,7.3,2.8
COc1ccc(CN(C)C[C@@H]2Oc3ccc(NS(=O)(=O)c4ccc(C)cc4)cc3C(=O)N([C@@H](C)CO)C[C@H]2C)cc1,-13.7,-8.7
CCC(=O)N1[C@H](CO)[C@H](c2ccc(C3=CCCCC3)cc2)[C@H]1CNCC1CCC1,-5.7,9.0
CNC[C@@H]1Oc2ccc(NS(=O)(=O)c3ccccc3)cc2C(=O)N([C@H](C)CO)C[C@H]1C,21.4,8.0
COc1cccc(C(=O)Nc2ccc3c(c2)C(=O)N(C)[C@H]2CC[C@@H](CC(=O)NCCCN4CCOCC4)O[C@@H]2CO3)c1,2.2,11.6
O=C(N[C@@H]1CC[C@@H](CCn2cc(C3(O)CCCC3)nn2)O[C@H]1CO)c1ccccc1F,-5.8,-3.3
C[C@H](CO)N1C[C@H](C)[C@@H](CN(C)Cc2ccc(C(F)(F)F)cc2)Oc2ccc(NC(=O)Nc3ccc(C(F)(F)F)cc3)cc2C1=O,-16.2,-9.3
O=S(=O)(NC[C@@H]1CC[C@H]2[C@H](CN2Cc2cccc(-c3ccccn3)c2)O1)c1ccccc1,5.6,8.1
CC(C)NC(=O)N1CCCCN2[C@H](C1)[C@H](c1ccc(C#Cc3ccccc3F)cc1)[C@@H]2CO,?,·
CCS(=O)(=O)N1CC(=O)N2[C@H](CO)[C@@H](c3ccc(C#Cc4cccc(F)c4)cc3)[C@@H]2C1,?,·
C[C@H]1CN([C@@H](C)CO)C(=O)c2cccc(NC(=O)c3ccc(-c4nccs4)cc3)c2O[C@H]1CN(C)Cc1ccc2c(c1)OCO2,-8.3,-2.0
C[C@H](CO)N1C[C@H](C)[C@@H](CN(C)Cc2ccc(C(=O)Nc3ccccc3N)cc2)Oc2ccc(NC(=O)Nc3ccc4c(c3)OCO4)cc2CC1=O,10.9,10.7
C[C@H](CO)N1C[C@H](C)[C@H](CN(C)S(=O)(=O)c2ccc(F)cc2)Oc2ccc(NC(=O)NC3CCCCC3)cc2C1=O,-22.5,-15.6
C[C@H](NC(=O)C[C@H]1CC[C@H](NC(=O)C2CC2)[C@@H](CO)O1)c1ccccc1,-1.0,4.6
COc1ccc(S(=O)(=O)N(C)C[C@H]2Oc3c(NC(=O)Nc4ccc(F)cc4)cccc3C(=O)N([C@H](C)CO)C[C@H]2C)cc1,-23.2,-13.6
CN1CCN(C(=O)C[C@H]2CC[C@H]3[C@@H](COc4ccc(NC(=O)C5CCC5)cc4C(=O)N3C)O2)CC1,21.6,10.4
COc1ccc(CN(C)C[C@H]2OCCCC[C@@H](C)Oc3ccc(NC(=O)c4ccccc4)cc3C(=O)N([C@@H](C)CO)C[C@@H]2C)cc1,?,·
C[C@@H]1CCCCO[C@H](CN(C)C(=O)Nc2ccc(C(F)(F)F)cc2)[C@@H](C)CN([C@@H](C)CO)C(=O)c2cc(NS(=O)(=O)c3cccs3)ccc2O1,-33.3,-24.8
C[C@H]1CN([C@@H](C)CO)S(=O)(=O)c2ccc(Br)cc2O[C@H]1CN(C)C(=O)CN(C)C,7.5&7.8,2.8&1.4
CCC(=O)N1C[C@H](C)[C@@H](OC)CN(C)C(=O)c2cc(NC(=O)C3CCOCC3)ccc2OC[C@@H]1C,18.3,3.5
C[C@H](CO)N1C[C@H](C)[C@@H](CN(C)C(=O)Nc2ccccc2)Oc2ccc(NC(=O)Nc3cccc4ccccc34)cc2CC1=O,14.4,10.9
CC(C)COC(=O)N(C)C[C@H]1OCc2cnnn2CCCC(=O)N([C@@H](C)CO)C[C@@H]1C,-0.7,-0.7
CCC(=O)N1CC2(CN(S(C)(=O)=O)C2)c2c(n(C)c3cc(OC)ccc23)[C@@H]1CO,5.6,-0.2
CCC(=O)N1CCC2(CC1)CN(C(=O)CN1CCOCC1)[C@H](CO)c1[nH]c3cc(OC)ccc3c12,5.0,-2.0
CCCNC(=O)N(C)C[C@@H]1Oc2cc(C3=CCCC3)ccc2S(=O)(=O)N([C@@H](C)CO)C[C@@H]1C,17.0,20.3
CO[C@H]1CN(C)C(=O)c2cc(NS(C)(=O)=O)ccc2OC[C@H](C)N(C(=O)C2CCCCC2)C[C@H]1C,-0.6,3.5
CN1c2ccc(Br)cc2[C@@H]2[C@@H](CCN2C(=O)C2CC2)[C@H]1CO,3.5,3.4
CO[C@@H]1CN(C)C(=O)c2ccc(NC(=O)c3ccccc3F)cc2OC[C@H](C)N(CC2CC2)C[C@@H]1C,-14.9,-16.7

Next records:
SMILES,Vaccinia stage,Vaccinia stage Venus
C/C=C/c1ccc2c(c1)O[C@@H](CN(C)C(=O)Nc1ccc(OC)cc1)[C@@H](C)CN([C@@H](C)CO)S2(=O)=O,-12.5,-14.2
NCC[C@@H]1CC[C@@H](NC(=O)C2CCCC2)[C@H](CO)O1,-7.0,0.3
CCNC(=O)C[C@H]1CC[C@H]2[C@H](COc3ccc(NC(=O)Nc4cccc(C)c4)cc3C(=O)N2C)O1,12.4,13.8
C[C@H](CO)N1C[C@H](C)[C@H](CN(C)Cc2ccc(Oc3ccccc3)cc2)Oc2ccc(NS(=O)(=O)c3ccccc3)cc2C1=O,?,·
CN1C(=O)c2cc(NC(=O)C3CCC3)ccc2OC[C@@H]2O[C@H](CC(=O)NCCc3ccncc3)CC[C@H]21,19.9,9.7

The list is partial, so the mix of outcomes need not match the whole.
